VACV Venus inh: vaccinia inhibition (Venus reporter); AID 720580; Potency, µM (top dose mostly 36.5 µM), for the others: at the highest dose activity change, negative = inhibition, most hits filed as inhibitors; actives 0.46% (n = 330,000); Vaccinia virus Venus reporter expression, fluorescence; active means well fitted inhibition curve with a large enough effect; inconclusive means small, poorly fitted or top-dose-only effect; inactive means no such curve, though single readings can be large or run the other way; tested in A549 cells; note: nearly all actives have a fitted effect of over 30% in size; inactives centre near -10
Vaccinia mCherry: inhibitors of vaccinia virus infection (mCherry reporter signal); Vaccinia virus mCherry reporter infection, fluorescence; about a quarter of the inactives have no number; Potency, µM (titrated, usually from 36.5 µM), for the others: at the highest dose activity change, negative = inhibition, most hits filed as inhibitors; actives 0.63% (n = 310,000); AID 720579; active = well fitted inhibition curve with a large enough effect; inconclusive = small, poorly fitted or top-dose-only effect; inactive = no such curve, though single readings can be large or run the other way; tested in A549 cells; note: nearly all actives have a fitted effect of over 35% in size; inactives centre near -10
* = called active by the depositor; i = inactive; ? = inconclusive; . = not tested or not shown; [ ] = another dose, or the depositor's remark. % is set by controls: 0 for no effect and ±100 for the full control effect; potency is the fitted concentration of half-maximal effect.

SMILES | VACV Venus inh | Vaccinia mCherry
CN(C)c1ccc(C(C#N)c2ccccc2)nn1 (centres undefined) | -5% | i
COc1ccc(C2=NN(CCC(=O)NCCc3ccccc3)C(=O)CC2)cc1 | -3% | -10%
Cc1ccccc1OCC(=O)N1CCC(c2nc3ccccc3s2)CC1 | 5% | -6%
CC(=O)c1cccc(-c2ccnc3c2CC(C(=O)Nc2ccc(F)c(Cl)c2)O3)c1 (centres undefined) | -9% | 7%
Cc1cc(NC(=O)C(C)SCC(=O)N(C)CC(=O)Nc2ccccc2C(F)(F)F)no1 (centres undefined) | -5% | -8%
COCCNC(=O)C1=C(N)C(C(=O)Nc2ccc(C)c(S(=O)(=O)N3CCCCC3)c2)SC1=Nc1ccc(C)cc1C (centres undefined) | -18% | -1%
CCOC(=O)c1c(C)[nH]c(C)c1S(=O)(=O)NCC(=O)N1CCN(c2cccc(C)c2)C(C)C1 (centres undefined) | -25% | ?
Cn1nccc1C(=O)N1CCC2(CC1)OCCO2 | 5% | -1%
COc1cc(OC)cc(C(=O)NNC(=O)CN2C(=O)NC(C)(c3ccc(C)cc3)C2=O)c1 (centres undefined) | -11% | -11%
CC(C)c1cccc(C2=CC(=O)C[C@H](c3ccc4c(c3)OCO4)C2)c1 | -23% | -10%
CCN(CC(=O)NCc1ccc(Cl)cc1)S(=O)(=O)c1ccc(F)cc1 | -7% | -17%
CC(C)OC(=O)c1c(NC(=O)c2cc3nc(-c4ccccc4)cc(C(F)(F)F)n3n2)sc2c1CCCC2 | -11% | -15%
COc1cccc(NC(=O)/C=C/c2ccco2)c1 | 1% | i
Cc1ccc(Oc2ccc3c(c2)C(=O)N(c2ccc(S(=O)(=O)Nc4nccs4)cc2)C3=O)cc1 | -2% | -6%
O=c1c2ccccc2c(-c2cccc(C(F)(F)F)c2)nn1-c1ccccc1 | -13% | -12%
CC1CCCC(C)N1Cc1cn2ccccc2n1 (centres undefined) | -13% | -18%
O=C(Nc1ccc(N2CCC(c3ccccc3)C2)c(C(=O)O)c1)c1ccc(Cl)cc1 (centres undefined) | -12% | -10%
COc1ccc(N2C(=O)CS(=O)(=O)C23C(=O)N(Cc2ccc(C)cc2)c2ccccc23)cc1Cl (centres undefined) | -1% | 4%
CCCCCC1CC(=O)NC1(C(=O)OCC)C(=O)OCC (centres undefined) | -10% | -18%
Cc1ccc2cc(C#N)c(NCc3ccco3)nc2c1 | 7% | -21%

Rewritten as tab-separated lines: entries from further up
SMILES	VACV Venus inh	Vaccinia mCherry
Cc1ccc(Oc2ccc3c(c2)C(=O)N(c2ccc(S(=O)(=O)Nc4nccs4)cc2)C3=O)cc1	-2%	-6%
O=c1c2ccccc2c(-c2cccc(C(F)(F)F)c2)nn1-c1ccccc1	-13%	-12%
CC1CCCC(C)N1Cc1cn2ccccc2n1 (centres undefined)	-13%	-18%
O=C(Nc1ccc(N2CCC(c3ccccc3)C2)c(C(=O)O)c1)c1ccc(Cl)cc1 (centres undefined)	-12%	-10%
COc1ccc(N2C(=O)CS(=O)(=O)C23C(=O)N(Cc2ccc(C)cc2)c2ccccc23)cc1Cl (centres undefined)	-1%	4%
CCCCCC1CC(=O)NC1(C(=O)OCC)C(=O)OCC (centres undefined)	-10%	-18%

Further results:
SMILES | VACV Venus inh | Vaccinia mCherry
CC(C)(C)OC(=O)N1CCCC(C(=O)Nc2cccc(C(=O)N3CCCCC3)c2)C1 (centres undefined) | -16% | -22%
O=C(NNc1cc(Cl)ccc1Cl)c1cccs1 | -4% | ?
COc1cc2cc(CCCOC(=O)c3cc(OC)c(OC)c(OC)c3)oc(=O)c2cc1OC | -16% | i
C=CCNC(=O)COC(=O)/C=C/c1cccs1 | 1% | -9%
CCCOc1ccc(-c2csc(NC(=O)CN3C(=O)CCC3=O)n2)cc1 | -12% | i
Cc1ccc(C(=O)NCCc2nnc3ccc(N4CCCC4)nn23)cc1 | -19% | i
CC1(N2CCCCC2)CC2(O)C(=[N+]1[O-])CCC/C2=N\O (centres undefined) | 10% | -1%
N=C1C2=C3Sc4ccccc4N3CCCC2=NN1c1cccc(S(=O)(=O)O)c1 | -10% | -4%
CC1CC(C)CN(c2oc(-c3ccccc3F)nc2C#N)C1 (centres undefined) | 2% | -8%
COc1ccc(-c2nnc3ccc(SCC(=O)Nc4nc5ccccc5s4)nn23)cc1OC | -9% | -9%
Cc1ccc(CNC(=O)c2cc(-c3ccc(C)cc3)nc3n[nH]c(-c4cccc([N+](=O)[O-])c4)c23)cc1 | ? | ?
Cc1c(C(=O)N2CCC(C(=O)Nc3ccc(F)c(Cl)c3)CC2)sc2nc[nH]c(=O)c12 | 0% | i
C=CC[C@@H](Cc1ccc(F)cc1)C(=O)OC[C@H]1CCCN1C(=O)[C@H](CC=C)CC(=O)NCCO | -13% | i
O=C(CSc1ccc(-c2cccnc2)nn1)Nc1ccc(F)cc1F | -16% | -21%
COc1cc(C(=O)N2CCN(c3cccc(Cl)c3)CC2)ccc1OCC(=O)N1CCOCC1 | ? | ?
Cc1onc(-c2ccccc2)c1C(=O)Nc1ccc(OC(C)C)cc1 | -4% | 10%
Fc1ccc(Nc2nc3ccccc3c3nncn23)c(Cl)c1 | -3% | -7%
COc1ccc(C(=O)C(CN2CCOCC2)c2ccccc2)cc1F (centres undefined) | 13µM* | 10µM*
O=C(COc1ccccc1)NCC1CCCO1 (centres undefined) | -16% | -19%
Cc1cc(C)n(CC2CC(=O)N(c3cc(Cl)cc(Cl)c3)C2=O)n1 (centres undefined) | -6% | i
CCC(C)c1ccc(NC(=S)N2CCCC2)cc1 (centres undefined) | -4% | -14%
CC(=O)C1=CN(CC2CCCCC2)CCC1=O | -6% | i
CCOc1ccc(CC(=O)NCc2ccc3c(c2)CCN3C(=O)c2ccccc2)cc1OCC | -8% | -12%
CN(C)S(=O)(=O)c1cccc(C(=O)OCC(=O)Nc2ccccc2OC(F)F)c1 | -8% | -17%
CC(C)n1c(COc2ccccc2)nc2ccccc21 | 5% | -3%
Cc1cc(NC(=O)CSCC(=O)OCC(=O)Nc2cc(C)c(C)cc2[N+](=O)[O-])no1 | -3% | ?
CCCc1cc(=O)oc2c3c(cc(OCC(=O)NCC4CCC(C(=O)O)CC4)c12)OC(C)(C)CC3 (centres undefined) | -10% | -11%
O=C(O)c1ccc(/C=N/Nc2ccc(Cl)nn2)cc1 | 9% | -10%
O=C(C1=C(O)C(=O)N(CC2CCCO2)C1c1cccnc1)c1ccco1 (centres undefined) | -23% | -23%
O=C(CSCc1ccc(Cl)cc1)Nc1ccccc1O | -4% | ?
Cc1cn([C@H]2C[C@H](O)[C@@H](CNCc3cnc(N4CCOCC4)nc3)O2)c(=O)[nH]c1=O | -15% | i
COc1ccc(CNC(=O)CCc2c(C)nc3c4cccnc4nn3c2C)cc1 | -8%[7.34 µM] | -17%
FC(F)(F)c1ccc(-c2ccc3c(c2)CNCc2cnnn2-3)cc1 | -2% | i
COc1ccc(Cn2c(O)c(C=NCCN3CCOCC3)c(=O)[nH]c2=O)cc1 | 10% | 0%
OC(Cc1cccnc1)(Cc1cccnc1)c1cc2ccccc2[nH]1 | -3% | -17%
COc1ccc(OC)c2c1CCC2=O | -5% | .
Cc1cc(NC(=O)C2CCCN(S(=O)(=O)c3c(C)noc3C)C2)no1 (centres undefined) | -8% | -10%
Cc1cc(C)c(C#N)c(SCC(=O)NC(C)(C)C)n1 | -1% | i
C=CC[C@H](CC(=O)NCCO)C(=O)NC[C@@H](OC(=O)[C@@H](CC=C)Cc1ccc(F)cc1)c1ccccc1 | -23% | -19%
Cc1cc(C)cc(OCC(=O)N(Cc2ccc(Cl)cc2)C2CCS(=O)(=O)C2)c1 (centres undefined) | -20% | -19%
COc1ccc2c(CNCc3ccccc3OC)c(C(=O)O)n(Cc3ccc(F)cc3Cl)c2c1 | -5% | i
Cc1ccc(C(=O)Nc2sc3c(c2C(=O)NCc2ccco2)CCCC3)cc1 | 1% | -12%
O=C(CCCCC(=O)NN=Cc1ccccc1O)NN=Cc1ccccc1O | -13% | 3.2µM*
Cc1occc1C(=O)N/N=C/C(Br)=C\c1ccccc1 | -22% | -10%
O=C(Nc1ccccc1)Nc1ccno1 | -9% | -13%
CCn1c(=O)cc(OCC(=O)Nc2ccccc2N2CCN(C)CC2)c2ccccc21 | 9% | 51%[activator]
Oc1cc(Cl)c(Cl)c(Cl)c1 | -22% | -5%
CCOc1cc(N2CCOCC2)c(OCC)cc1NC(=O)Cc1ccc(OC)c(OC)c1 | -13% | -24%
CC1CCN(S(=O)(=O)c2ccc3c(c2)CCN3)CC1 | -16% | -20%
O=C(Nc1nnc(-c2ccccc2)o1)Nc1ccccc1Cl | -15% | -4%

Next section.
SMILES | VACV Venus inh | Vaccinia mCherry
CCOCCCNC(=O)c1c(NC(=O)Cc2coc3c(C)c(C)ccc23)sc2c1CCC2 | -7% | 0%
O=C(NNc1nc(-c2ccccc2)cs1)c1ccccc1 | -7% | -25%
COC(=O)C1=C(c2cc3ccccc3s2)C[C@@H]2CC[C@H]1N2C(=O)NCc1ccco1 | -27% | -1%
CC(=O)Nc1ccc(NC(=O)c2ccccc2N(Cc2ccccc2)S(C)(=O)=O)cc1 | -3% | -13%
CSc1ccc(S(=O)(=O)NCC(=O)OCC(=O)N(C)C2CCCCC2)cc1[N+](=O)[O-] | -12% | -14%
Cc1ccc(NC(=O)C2(c3cccs3)CCOCC2)cc1Cl | 3% | -17%
CC(=O)c1sc(NC(=O)CS(=O)(=O)c2ccccc2)nc1C | -7% | -8%
COc1ccc(Cl)cc1N(CC(=O)NC1CC1)S(=O)(=O)c1ccc(C)c([N+](=O)[O-])c1 | -13% | ?
CC(SCc1cc(=O)n2c([nH]c3ccccc32)c1C#N)C(=O)O (centres undefined) | 9% | i
COc1ccc(N2CCN(C(=O)c3cc4cc(Cl)ccc4[nH]3)CC2)cc1 | -3% | ?
O=C(CSc1ncn[nH]1)Nc1ccc(S(=O)(=O)Nc2ncccn2)cc1 | 2% | -14%
O=C(NCCC(=O)N1CCC2(CC1)NCCc1[nH]cnc12)c1cccc(Br)c1 | -15% | i
COC(=O)[C@]1(C)CC[C@@]2(C)CC[C@@]3(C)C4=CC=C5C(=CC(=O)C(O)=C5C)[C@@]4(C)CC[C@@]3(C)C2C1 (some centres undefined) | -27% | -17%
O=C(COc1ccccc1Cl)N1CCc2ccccc2C1 | -13% | -1%
Cc1noc(C(=O)NCc2ccc(F)cc2)c1Cl | -6% | -10%
Cc1ccc(-c2nnc(N3CCOCC3)c3ccccc23)cc1S(N)(=O)=O | -4% | -10%
COc1cc2c(cc1OC)C(SC)=NC1(CCCC1)C2 | 9% | i
Nc1ccc(/C=C/c2ccnc3ccccc23)cc1 | -14% | -20%
O=C(NCc1ccccn1)[C@@H]1CCCN1C(=O)[C@@H]1CCCN1C(=O)c1ccccc1 | 12% | 12%
COc1ccc(C(=O)c2nc3c(n2O)CCCC3)cc1OC | 2% | .

Arranged by number of heavy atoms (ascending): 7 of the compounds above
SMILES | VACV Venus inh | Vaccinia mCherry
Nc1ccc(/C=C/c2ccnc3ccccc23)cc1 | -14% | -20%
COc1cc2c(cc1OC)C(SC)=NC1(CCCC1)C2 | 9% | i
COc1ccc(C(=O)c2nc3c(n2O)CCCC3)cc1OC | 2% | .
O=C(CSc1ncn[nH]1)Nc1ccc(S(=O)(=O)Nc2ncccn2)cc1 | 2% | -14%
Cc1ccc(-c2nnc(N3CCOCC3)c3ccccc23)cc1S(N)(=O)=O | -4% | -10%
O=C(NCCC(=O)N1CCC2(CC1)NCCc1[nH]cnc12)c1cccc(Br)c1 | -15% | i
COC(=O)[C@]1(C)CC[C@@]2(C)CC[C@@]3(C)C4=CC=C5C(=CC(=O)C(O)=C5C)[C@@]4(C)CC[C@@]3(C)C2C1 (some centres undefined) | -27% | -17%

New compounds follow.
SMILES | VACV Venus inh | Vaccinia mCherry
N#CC1=C2Nc3ccccc3N2C(=O)NC1(c1ccccc1)C(F)(F)F (centres undefined) | -7% | -11%
O=C(COC(=O)c1cc(S(=O)(=O)N2CCCCC2)ccc1N1CCOCC1)c1ccccc1 | -6% | -19%
CCN(CC)CCOC(c1ccccc1)c1ccc(C)cc1 (centres undefined) | -13% | i
CC(C(=O)NC1CCCC1)N(Cc1ccco1)C(=O)c1snc(C(=O)NC2CCCC2)c1N (centres undefined) | -1% | -7%
COc1cc(/C=C2\C=Cc3ccccc32)ccc1N(C)C | -11% | -15%
Cc1nc(SCC(=O)N2CC(=O)Nc3ccccc32)c2c(C)c(C)sc2n1 | ? | ?
COC(=O)c1ccc(C2C(Oc3ccc(OC)cc3)C(=O)N2CCc2ccc(OC)c(OC)c2)cc1 (centres undefined) | 11% | -4%
CC(C)(C)c1ccc(Cn2nnc3c(=O)[nH]c(C4CCCN(C(=O)Cc5cccs5)C4)nc32)cc1 (centres undefined) | ? | -21%
Cc1ccc(S(=O)(=O)/N=C(/c2ccc(F)cc2)N2CCCC2)cc1 | -20% | 0%
Cc1ccc(SCCC(=O)NC2CC2)cc1 | -13% | -15%
C=CCOc1c(Br)cc(CNc2ccc3[nH]c(=O)[nH]c3c2)cc1OCC | ? | ?
CCOC(=O)c1sc2nc(C(C)C)c3c(c2c1N)CC(C)(C)OC3 | -15% | .
Nc1nc2ccccc2cc1C(=O)NCc1cccs1 | -17% | ?
CCCCN=CC1=C(O)C(C(=O)OC)C(C)(C)CC1=O (centres undefined) | ? | .
CC1=C(C(=O)Nc2ccc(F)cc2)C(c2cccc(C)c2)n2nc(CCCO)nc2N1 (centres undefined) | 7% | 0%
CC(=O)N[C@@H]1CC[C@@]2(O)[C@H]3Cc4ccc(O)c5c4[C@@]2(CCN3CC2CC2)[C@@H]1O5 | -10% | -15%
COc1cc(NC(=O)Cc2c(C(=O)O)c(C)cn2C)cc(OC)c1 | -6% | -2%
CCOc1ccc(C(=O)c2cn(CC(=O)Nc3ccc(F)cc3)c3cc4c(cc3c2=O)OCCO4)cc1 | -8% | -18%
